Compound activity as filed in PubChem.
MbtI inh = inhibitors of Mycobacterium tuberculosis siderophore enzyme MbtI. P9WFX0. purified MbtI enzyme, fluorescence intensity read-out. inhibition, %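 (about 17 µg/mL by stock and volumes)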. 0.89% of 100,000 active;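 active means above 50% in both replicates, above 80% if mildly self-fluorescent; inactive means the rest, strongly fluorescent compounds included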;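 further: 0% = mean of negative and 100% = mean of positive controls; one replicate is shown; some compounds called inactive have numbers as strong as hits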
Polio RdRp inh = poliovirus RNA polymerase inhibition. P03300. poliovirus polymerase elongation, fluorescence polarization; hits give low values. % elongation, % (compound at 16.7 µg/mL). 0.66% of 150,000 active. AID 588519; in the data active means % elongation below about 90%; further: some results filed as inactive read as strong as hits
Target sequence (P03300 1749-2209 limits assumed): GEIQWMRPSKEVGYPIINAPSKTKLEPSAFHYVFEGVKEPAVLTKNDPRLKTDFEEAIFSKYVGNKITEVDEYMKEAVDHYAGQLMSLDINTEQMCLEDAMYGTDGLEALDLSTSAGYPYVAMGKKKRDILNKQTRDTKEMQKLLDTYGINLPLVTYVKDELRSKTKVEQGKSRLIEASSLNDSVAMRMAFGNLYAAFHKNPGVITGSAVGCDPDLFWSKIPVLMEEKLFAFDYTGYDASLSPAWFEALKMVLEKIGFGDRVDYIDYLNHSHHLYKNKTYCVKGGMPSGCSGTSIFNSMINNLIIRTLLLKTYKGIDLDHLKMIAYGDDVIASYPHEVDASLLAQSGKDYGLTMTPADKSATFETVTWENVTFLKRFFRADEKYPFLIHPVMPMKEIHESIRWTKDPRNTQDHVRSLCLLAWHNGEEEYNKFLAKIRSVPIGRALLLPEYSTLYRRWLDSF
MenB inh = blocks the Mycobacterium tuberculosis MenB enzyme; P9WNP5; MenB enzyme assay, absorbance read-out; some hits fall short of the stated cut; inhibition, %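 (about 12 µg/mL by stock and volumes)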; 0.43% of 100,000 active;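 active means mean of two replicates above 30%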;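 further: 0% = no compound and 100% = wells with inactive enzyme; the first replicate is given; strong numbers were not always called active; inactives centre near -10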
Target sequence (P9WNP5 whole entry, looked up): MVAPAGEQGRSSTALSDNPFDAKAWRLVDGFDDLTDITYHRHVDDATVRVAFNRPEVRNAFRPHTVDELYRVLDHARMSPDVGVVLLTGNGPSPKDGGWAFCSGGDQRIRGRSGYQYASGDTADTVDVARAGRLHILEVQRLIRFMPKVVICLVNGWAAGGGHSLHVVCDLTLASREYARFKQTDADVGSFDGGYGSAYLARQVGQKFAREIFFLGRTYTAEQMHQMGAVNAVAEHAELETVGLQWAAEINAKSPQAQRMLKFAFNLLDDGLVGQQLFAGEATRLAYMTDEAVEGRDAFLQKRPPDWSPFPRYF
Polio RdRp inh intensity = also measured in Polio RdRp inh; calls as there; % elongation; measured here: total intensity read-out; formula for this scale not given here;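 total fluorescence in place of polarization; lower means less elongation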
Numbers without * were called inactive; & = joins results of further samples.

Cc1ccc(NC(=O)Cn2nnn(-c3ccccc3)c2=O)cc1C was read as MbtI inh 1.2, Polio RdRp inh 101.0, MenB inh -3.9 and Polio RdRp inh intensity 105.0.
Screening NC1=C(c2ccc3ccccc3n2)C(=O)CS1 returned MbtI inh -15.7, Polio RdRp inh 103.0 and Polio RdRp inh intensity 107.0.
For CC(C)C(NC(=O)c1ccc(C23CC4CC(CC(C4)C2)C3)cc1)C(=O)NCC1CCCO1 (configuration not stated) the results were MbtI inh 0.9, Polio RdRp inh 100.0, MenB inh 3.6 and Polio RdRp inh intensity 104.0.
`O=C1CNc2c(F)c(F)c(F)c(F)c2O1` gave MbtI inh 4.8, Polio RdRp inh 99.0, MenB inh -6.5 and Polio RdRp inh intensity 97.0.
`O=S(=O)(NCc1cn2ccsc2n1)c1ccc2c(c1)OCCO2` gave MbtI inh -1.2, Polio RdRp inh 100.0, MenB inh -2.1 and Polio RdRp inh intensity 102.0.
Screening N#Cc1ccc(OCC(=O)N/N=C2\CCc3ccccc32)cc1 returned MbtI inh -2.0, Polio RdRp inh 101.0, MenB inh 12.9 and Polio RdRp inh intensity 106.0.
`COC(=O)/C=C1\S/C(=N\N=C\c2ccccc2)NC1=O` gave MbtI inh 7.5, Polio RdRp inh 101.0, MenB inh -7.8 and Polio RdRp inh intensity 99.0.
Screening CC(C)(C)n1cnc2cc(N=Cc3ccccc3O)ccc21 returned MbtI inh -152.3, Polio RdRp inh 102.0, MenB inh -25.7 and Polio RdRp inh intensity 102.0.
O=C(c1n[nH]c(=O)c2ccccc12)N1CCC(Cc2ccccc2)CC1 was read as MbtI inh -7.4, Polio RdRp inh 103.0, MenB inh -13.2 and Polio RdRp inh intensity 109.0.
`Fc1ccccc1CSc1nnc2c(n1)[nH]c1ccccc12` gave MbtI inh -9.1, Polio RdRp inh 106.0, MenB inh -46.9 and Polio RdRp inh intensity 101.0.
For CCC1C/C(=C/c2ccccc2OC)C(=O)/C(=C/c2ccccc2OC)C1 (configuration not stated) the results were MbtI inh 6.0, Polio RdRp inh 99.0, MenB inh -60.7 and Polio RdRp inh intensity 105.0.
CN1CCN(CC(=O)N2c3ccccc3C(=O)Nc3cccnc32)CC1 was read as MbtI inh -1.2&-8.3, Polio RdRp inh 99.0&101.0, MenB inh 5.2&-6.4 and Polio RdRp inh intensity 100.0&99.0.
`Fc1ccc(-c2oncc2-c2nnnn2-c2ccc(Cl)cc2)cc1` gave MbtI inh -2.2, Polio RdRp inh 104.0, MenB inh 18.3 and Polio RdRp inh intensity 106.0.
`Cc1ccc(S(=O)(=O)N2CCN(Cn3nnc(-c4ccccc4)n3)CC2)cc1` gave MbtI inh 2.7, Polio RdRp inh 100.0, MenB inh 6.5 and Polio RdRp inh intensity 105.0.
`Cc1ccc(-c2nn(CCO)c(=O)c3ccccc23)cc1C` gave MbtI inh -17.9, Polio RdRp inh 102.0, MenB inh 6.7 and Polio RdRp inh intensity 109.0.
`CC(NC(=O)c1ccccc1)c1nnc(SCC(=O)c2ccccc2)n1C` (configuration not stated) gave MbtI inh -14.0, Polio RdRp inh 106.0, MenB inh -22.5 and Polio RdRp inh intensity 101.0.
For O=C(Cc1nc2ccccc2[nH]1)NCc1ccccn1 the results were MbtI inh -8.1, Polio RdRp inh 103.0 and Polio RdRp inh intensity 105.0.
For Cc1cc(C(=O)COc2ccccc2C#N)c(C)n1-c1cccc(S(=O)(=O)N2CCOCC2)c1 the results were MbtI inh 14.3, Polio RdRp inh 104.0, MenB inh -27.1 and Polio RdRp inh intensity 106.0.
Screening O=C(CSc1nncs1)NCCCc1ccccc1 returned MbtI inh 3.0, Polio RdRp inh 100.0, MenB inh 12.9 and Polio RdRp inh intensity 97.0.
For COc1ccc(/C(C)=N/NC(=O)c2cc(C3CC3)[nH]n2)cc1OC the results were MbtI inh 17.3, Polio RdRp inh 101.0, MenB inh 10.3 and Polio RdRp inh intensity 99.0.
Screening NCC1CCCN(CCO)C1 (configuration not stated) returned MbtI inh -5.0, Polio RdRp inh 101.0, MenB inh 0.3 and Polio RdRp inh intensity 102.0.
For O=C(COc1ccc2ccc(=O)oc2c1)c1ccc2c(c1)OCCO2 the results were MbtI inh -38.7, Polio RdRp inh 107.0, MenB inh -22.6 and Polio RdRp inh intensity 112.0.
O=C(c1ccc(Cl)cc1)N1CCCCC1 was read as Polio RdRp inh 98.0, MenB inh -29.2 and Polio RdRp inh intensity 91.0.
For N#CCC(=O)NCc1cccs1 the results were MbtI inh -13.0, Polio RdRp inh 107.0, MenB inh -23.5 and Polio RdRp inh intensity 109.0.
For C[N+](C)(C)CCOC(N)=O the results were MbtI inh -7.1&-28.0, Polio RdRp inh 105.0&99.0, MenB inh -2.7&10.1 and Polio RdRp inh intensity 97.0&102.0.
S=P(Nn1cnnc1)(c1ccccc1)c1ccccc1 was read as MbtI inh -1.0, Polio RdRp inh 102.0, MenB inh -9.7 and Polio RdRp inh intensity 106.0.
Screening CNC(=S)N/N=C(\C)c1ccc(-n2ccnc2)cc1 returned MbtI inh 31.6, Polio RdRp inh 102.0, MenB inh -2.3 and Polio RdRp inh intensity 104.0.
For N#Cc1c(N2CCCC(C(=O)O)C2)nc(N)c2c(N)nc3c(c12)CC(=O)N3C1CCCC1 (configuration not stated) the results were MbtI inh -135.7, Polio RdRp inh 101.0, MenB inh -79.5 and Polio RdRp inh intensity 95.0.
For CCC(Sc1nc2ccncc2[nH]1)C(=O)N(CC)CC (configuration not stated) the results were MbtI inh 5.6, Polio RdRp inh 103.0, MenB inh -17.6 and Polio RdRp inh intensity 103.0.
For CCOc1cccc2cc(C(=O)N3CCN(C/C=C/c4ccccc4)CC3)c(=O)oc12 the results were MbtI inh -3.0, Polio RdRp inh 101.0, MenB inh -4.9 and Polio RdRp inh intensity 102.0.
For Cc1oc2ncn(C)c(=O)c2c1C(=O)Nc1ccccc1 the results were MbtI inh 0.2, Polio RdRp inh 104.0, MenB inh -32.0 and Polio RdRp inh intensity 102.0.
`CCOC(=O)N1CCC(NC(=O)C(NC(=O)C2CCC(C)CC2)C(C)C)CC1` (configuration not stated) gave MbtI inh 15.5, Polio RdRp inh 99.0, MenB inh -2.2 and Polio RdRp inh intensity 102.0.
For Cc1cc(Br)ccc1NC(=O)CS(=O)(=O)c1cccc2nsnc12 the results were MbtI inh -3.1, Polio RdRp inh 103.0, MenB inh -19.1 and Polio RdRp inh intensity 106.0.
Screening c1ccc(Oc2cccc(CSc3nnc(-c4ccc5c(c4)OCO5)o3)c2)cc1 returned MbtI inh 22.9, Polio RdRp inh 103.0, MenB inh -2.4 and Polio RdRp inh intensity 101.0.
For C/C(=N\OCC(=O)Nc1ccccc1OC(F)F)c1cc2ccccc2o1 the results were MbtI inh 11.8, Polio RdRp inh 96.0, MenB inh -9.2 and Polio RdRp inh intensity 96.0.
Screening CN(C)c1ccc(C(=O)N2CCCC2)cc1 returned Polio RdRp inh 106.0, MenB inh -2.6 and Polio RdRp inh intensity 107.0.
Screening CC(Oc1ccccc1F)c1nnc(SCc2ccc(C#N)cc2)o1 (configuration not stated) returned MbtI inh 2.3, Polio RdRp inh 99.0, MenB inh -11.9 and Polio RdRp inh intensity 104.0.
For Cn1c(=O)c(C(=O)Nc2cccc(O)c2)c(O)c2ccccc21 the results were MbtI inh 16.9, Polio RdRp inh 101.0, MenB inh -4.0 and Polio RdRp inh intensity 103.0.
CN(C)Cc1c(O)ccc2c(=O)c(-c3ccccc3)c(C(F)(F)F)oc12 was read as MbtI inh -9.8, Polio RdRp inh 100.0 and Polio RdRp inh intensity 104.0.
`CCOc1ccc(-c2nc(-c3cccs3)c(CC(=O)O)s2)cc1OC` gave MbtI inh 102.2, Polio RdRp inh 106.0, MenB inh -23.2 and Polio RdRp inh intensity 107.0.
`COc1ccc(CN(C)CC(O)COc2ccc(C#N)cc2)cc1` (configuration not stated) gave MbtI inh 7.2, Polio RdRp inh 100.0, MenB inh -2.7 and Polio RdRp inh intensity 105.0.
For O=C1c2ccccc2C(Nc2ccc(S(=O)(=O)N3CCOCC3)cc2)N1Cc1ccccc1Cl (configuration not stated) the results were MbtI inh 5.8, Polio RdRp inh 103.0, MenB inh 0.9 and Polio RdRp inh intensity 98.0.
`CCNC(=O)C1CCN(c2cnccn2)CC1` gave MbtI inh -3.5, Polio RdRp inh 106.0, MenB inh -30.6 and Polio RdRp inh intensity 99.0.
CN(CC(=O)N1CCCCCC1)S(=O)(=O)c1ccc2[nH]c3c(c2c1)CCCC3 was read as MbtI inh -20.3, Polio RdRp inh 102.0, MenB inh -12.2 and Polio RdRp inh intensity 101.0.
For C(=C\c1ccccc1)/CN1CCN(Cc2c[nH]c3ccccc23)CC1 the results were MbtI inh -4.1, Polio RdRp inh 102.0, MenB inh -16.9 and Polio RdRp inh intensity 101.0.
For Cc1nc2nc(NC(=O)C(C)N3C(=O)c4ccccc4C3=O)[nH]n2c(=O)c1C (configuration not stated) the results were MbtI inh -14.2, Polio RdRp inh 99.0, MenB inh -0.2 and Polio RdRp inh intensity 103.0.
For O=C(c1ccco1)N1CCN(c2cnn(-c3ccccc3)c(=O)c2Cl)CC1 the results were MbtI inh -5.6, Polio RdRp inh 102.0, MenB inh -15.4 and Polio RdRp inh intensity 102.0.
`C=C(C)NC(=S)Nc1nccs1` gave MbtI inh 8.6, Polio RdRp inh 101.0, MenB inh -21.9 and Polio RdRp inh intensity 104.0.
For CCCCCC1NC(=O)NC1CCCCCC(=O)O (configuration not stated) the results were MbtI inh 0.5, Polio RdRp inh 99.0, MenB inh 11.5 and Polio RdRp inh intensity 105.0.
CC(C)CSc1nc2ccccc2c(=O)[nH]1 was read as MbtI inh 40.9, Polio RdRp inh 101.0, MenB inh -5.2 and Polio RdRp inh intensity 96.0.
For Cn1cnnc1SCC(=O)NC1CCCCCC1 the results were MbtI inh -4.6, Polio RdRp inh 101.0 and Polio RdRp inh intensity 101.0.
For COc1ccc(C(CC(=O)N2CCN(c3ccccc3F)CC2)N2Cc3ccccc3C2=O)cc1OC (configuration not stated) the results were MbtI inh -23.9, Polio RdRp inh 104.0, MenB inh -34.1 and Polio RdRp inh intensity 104.0.
For Cc1ccc2oc(-c3cccc(NC(=O)CC(C)C)c3)nc2c1 the results were Polio RdRp inh 106.0, MenB inh -20.1 and Polio RdRp inh intensity 113.0.
For C=C(C)C(=O)OCCc1ccc(O)c(-n2nc3ccccc3n2)c1 the results were Polio RdRp inh 104.0, MenB inh -8.9 and Polio RdRp inh intensity 114.0.
C=CCSc1n[nH]c(=O)n1-c1ccc2c(c1)OCCO2 was read as Polio RdRp inh 100.0, MenB inh -8.6 and Polio RdRp inh intensity 103.0.
For CCN(CC)S(=O)(=O)c1ccc(Cl)c(OC)c1 the results were MbtI inh -13.3, Polio RdRp inh 103.0, MenB inh -16.2 and Polio RdRp inh intensity 99.0.
CC(NC(=O)Nc1ccccc1)C(c1ccccc1)N1CCN(C)CC1 (configuration not stated) was read as MbtI inh -3.9, Polio RdRp inh 107.0, MenB inh -37.7 and Polio RdRp inh intensity 98.0.
`COc1ccccc1CN(C)CCN` gave MbtI inh 2.3, Polio RdRp inh 101.0, MenB inh 74.6* and Polio RdRp inh intensity 107.0.
Screening Cc1ccc(C(=O)C(C)OC(=O)Cn2c(C)csc2=O)cc1 (configuration not stated) returned MbtI inh -6.1, Polio RdRp inh 103.0, MenB inh -42.5 and Polio RdRp inh intensity 100.0.
Screening CC12CCC(=O)N1c1ccccc1C(=O)N2c1ccccc1 (configuration not stated) returned Polio RdRp inh 101.0, MenB inh -1.8 and Polio RdRp inh intensity 98.0.
Cc1cc(OC(C)c2nc(-c3nonc3N)no2)ccc1Cl (configuration not stated) was read as Polio RdRp inh 107.0, MenB inh -13.2 and Polio RdRp inh intensity 105.0.
`COc1ccc(-n2ccc(-c3ccccc3)nc2=S)cc1` gave MbtI inh 4.5, Polio RdRp inh 104.0, MenB inh 18.3 and Polio RdRp inh intensity 114.0.
For OC(C#CC(O)(c1ccccc1)c1ccccc1)c1ccc(F)cc1 (configuration not stated) the results were Polio RdRp inh 103.0, MenB inh -14.1 and Polio RdRp inh intensity 107.0.
Screening Cc1ccc(S(=O)(=O)NCCC(=O)N2CCC2)cc1C returned MbtI inh -4.5, Polio RdRp inh 105.0, MenB inh 3.0 and Polio RdRp inh intensity 111.0.
For CCOc1ccc(NC(=O)C23CC4CC(CC(O)(C4)C2)C3)cc1 the results were MbtI inh -4.2, Polio RdRp inh 100.0, MenB inh -15.1 and Polio RdRp inh intensity 101.0.
`CCOC(=O)c1ccc(NC(=O)c2cc(=O)[nH]c3ccccc23)cc1` gave MbtI inh -14.0, Polio RdRp inh 104.0 and Polio RdRp inh intensity 105.0.

Pulled one by one from the list above, 4 records:
O=C(c1n[nH]c(=O)c2ccccc12)N1CCC(Cc2ccccc2)CC1 was read as MbtI inh -7.4, Polio RdRp inh 103.0, MenB inh -13.2 and Polio RdRp inh intensity 109.0.
For Cc1oc2ncn(C)c(=O)c2c1C(=O)Nc1ccccc1 the results were MbtI inh 0.2, Polio RdRp inh 104.0, MenB inh -32.0 and Polio RdRp inh intensity 102.0.
`CC(NC(=O)c1ccccc1)c1nnc(SCC(=O)c2ccccc2)n1C` (configuration not stated) gave MbtI inh -14.0, Polio RdRp inh 106.0, MenB inh -22.5 and Polio RdRp inh intensity 101.0.
For O=C(Cc1nc2ccccc2[nH]1)NCc1ccccn1 the results were MbtI inh -8.1, Polio RdRp inh 103.0 and Polio RdRp inh intensity 105.0.
